Bioassay records from PubChem BioAssay.
CDC25B CDK2 inh – human CDC25B-CDK2/CyclinA binding inhibition; P30305+P24941; HTRF CDC25B-CDK2/CyclinA binding, anti-His/anti-Flag; hits give high values; z-score (concentration not given with the values); 0.72% of 94,000 active; AID 1259370;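 also: score is relative to mean and SD of negative controls; strong numbers were not always called active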
TAR Tat displ – HIV-1 TAR-Tat binding disruption; HIV-1 TAR RNA, Tat peptide displacement FRET; hits give high values; z-score (concentration not given with the values); 0.6% of 100,000 active;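 also: score is relative to mean and SD of negative controls; some compounds called inactive have numbers as strong as hits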
* marks the source's active call; other numbers are inactive results; . = not tested or not shown; & = joins results of further samples.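 The calls were made as follows: active = z-score from 3 up in half or more of its runs; inactive = the rest.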

SMILES | CDC25B CDK2 inh | TAR Tat displ
COc1ccc(-c2c3c(=O)n(C)c(=O)n(C)c3c3n2C(C)(C)COC3c2cccs2)cc1 (centres undefined) | -1.3 | -0.43
CN(C)/C=N/c1nc(Sc2ccc([N+](=O)[O-])cn2)n(C)n1 | -0.67 | .
COC(=O)c1cc(C#N)c(Sc2ncc([N+](=O)[O-])s2)nc1C(OC)OC | -2.3 | .
CCOc1cc(CNC(C)(C)CO)ccc1Oc1nnnn1-c1ccccc1 | . | -0.18
CCCC(=O)Nc1c(C(=O)N2CCN(c3ccccn3)CC2)oc2ccccc12 | 0.4 | 0.07
CC(C)N(C(=O)c1noc2c1CCc1sccc1-2)C1CCCCC1 | . | -0.26
CN(CC(=O)NCCCN1CCCCC1)c1nnc(N2CCCC2=O)s1 | -2.7 | 1.8
COc1ccc(NC(=O)Nc2nc(C)cs2)c(OC)c1 | -0.65 | 2.2
Cc1nc2c(c(NCc3ccccc3Cl)n1)CCC2 | -0.3 | 0.69
Cc1ccc(N2C(=O)C3ON(c4ccccc4)C(c4cccs4)C3C2=O)cc1 (centres undefined) | -0.79 | .
CCOC(=O)c1ccc(NNC(=S)Nc2ccccc2C)cc1 | -0.41 | .
Cc1cccc(CNS(=O)(=O)c2ccc(-c3cnc(C4CC4)o3)cc2)c1 | . | 0.96
Cc1nn(CCCC(=O)NC2CCCCC2)c(=O)c2c1sc1ccccc12 | -1.6 | 1.3
C=CCc1ccccc1OC(=O)CSc1nc(-c2ccco2)nc2cc(=O)[nH]n12 | . | 0.97
COCCNS(=O)(=O)c1ccc2c(c1)NC(=O)CS2 | . | -1.3
O=C(CCS(=O)(=O)c1ccc2c(c1)CCN2C(=O)C1CC1)Nc1ccccc1 | . | 0.07
COC(=O)c1cc2c(cc1NC(=O)Cc1noc3ccccc13)OCO2 | -0.33 | 2.2
Cc1cc(-c2ccc(C(C)C)c(S(=O)(=O)NCc3cccnc3)c2)on1 | . | 0.08
CN(C)S(=O)(=O)N(Cc1ccc(C(C)(C)C)cc1)c1ccccc1 | -0.99 | -0.67
CSC(=N)c1ccc(Cl)cc1 | -1.6 | .
O=c1c2ccccc2nc2n1CCCN2Cc1ccccc1F | -1.1 | 0.18
NC(=O)c1ccc2c(c1)CCN2S(=O)(=O)c1ccc(Br)cc1 | 0.43 | 1.7
CC1CCC(NC(=O)CN2C(=O)CSc3ccc(S(=O)(=O)N4CCCC4)cc32)CC1 (centres undefined) | . | 1.2
Cn1c(=O)c2c(nc(N3CCCCCC3)n2CC(O)COc2ccc(Cl)cc2)n(C)c1=O (centres undefined) | 0.65 | .
Cc1c(C(=O)NCCCN2C(C)CCCC2C)sc2nc3n(c(=O)c12)CCCCC3 (centres undefined) | . | 0.1

In a second layout: results already given
Every second line gives: CDC25B CDK2 inh	TAR Tat displ
> Cc1ccc(N2C(=O)C3ON(c4ccccc4)C(c4cccs4)C3C2=O)cc1 (centres undefined)
 : -0.79	.
> CN(C)/C=N/c1nc(Sc2ccc([N+](=O)[O-])cn2)n(C)n1
 : -0.67	.

More structures:
SMILES | CDC25B CDK2 inh | TAR Tat displ
c1ccc(CN2CCN(Cc3nnc(-c4ccc5c(c4)OCO5)o3)CC2)cc1 | -2.3 | 1.9
COc1cnc(CSc2nc(C)cc(C)n2)cc1OCC(=O)Nc1ccc2c(c1)OCO2 | . | 1.4
O=C(CN1C(=O)c2cccnc2Sc2ccccc21)N1CCN(c2ccccc2F)CC1 | . | 1.3
Cc1cc(C)c(S(=O)(=O)NCC(c2ccco2)N2CCOCC2)c(C)c1 (centres undefined) | . | 1.2
COc1ccc(NC(=O)c2nn(-c3ccccc3)ccc2=O)c(OC)c1 | -1.1 | 0.25
Cc1ccc(C2=NS(=O)(=O)N(C)C(C(=O)N3CCCCC3C)=C2)cc1 (centres undefined) | -1.4 | 1.3
CCOC(=O)CCc1ccc(Oc2c([N+](=O)[O-])cc(C(F)(F)F)cc2[N+](=O)[O-])cc1 | -2.3 | .
CCn1c(-c2cccs2)n[nH]c1=S | -2.5 | .
CC(C)c1nn2c(=O)cc(COC(=O)COc3ccccc3F)nc2s1 | . | -0.21
Cc1ccc(-c2c(N3CCN(c4cc(C)ccc4C)CC3)c(=O)c2=O)cc1 | . | 1.5
CCOc1cc(C2C(C#N)=C(N)Oc3cc(C)oc(=O)c32)ccc1OCc1ccccc1 (centres undefined) | 0.58 | .
Fc1ccc(NCc2ccncc2)cc1 | 15* | 1.1
CCc1nn2c(=O)cc(COC(=O)CNC(=O)c3ccco3)nc2s1 | . | 1.6
CCOC(=O)c1c(C)oc2ncnc(N(C)CCO)c12 | . | -1.5
O=C(C1CCN(S(=O)(=O)c2cccnc2)CC1)N1CCN(c2ccc(F)cc2)CC1 | -0.65 | .
Cc1ccc(C)c(-c2nc(Cn3c(=O)cc(C(F)(F)F)c4c(C)nn(C)c43)c(C)o2)c1 | . | -0.67
CSc1nn(CC(=O)Nc2ccccc2)c2nc3c(c(=O)n12)C(C)(C)Cc1ccccc1-3 | 0.66 | 1.6
O=C(Cn1nnc(-c2cccc(C(F)(F)F)c2)n1)Nc1cccnc1 | 0.14 | .
Clc1ccc(-c2cc(-c3ccccn3)on2)c(Cl)c1 | -0.87 | .
Cc1ccc(-c2nnc3sc(COc4ccc(Cl)cc4)nn23)cc1 | -1 | 0.37
CC(=O)c1ccc(NC(=O)c2cc(-c3ccco3)on2)cc1 | -0.04 | .
COc1ccc(-c2cc(C3CCN(c4nc(N)c5cc(OC)c(OC)cc5n4)CC3)[nH]n2)cc1OC | 20* | .
C[C@]12CCC(=O)C=C1CCC1C2[C@@H](O)C[C@@]2(C)C1CC[C@]2(O)C(=O)COC(=O)CCC(=O)O (some centres undefined) | . | -0.2
CC(C)(C)C(=O)Nc1cc(C(=O)Nc2cc(C(=O)O)cc(C(=O)O)c2)cc(C(=O)Nc2cc(C(=O)O)cc(C(=O)O)c2)c1 | 8.6 | .
CC1=C(C(=O)OCC2CCCO2)C(c2cccc(Cl)c2)C2=C(CC(c3cccs3)CC2=O)N1 (centres undefined) | -0.95 | 1
(list continues)
SMILES | CDC25B CDK2 inh | TAR Tat displ
CC(C)c1ccc(-n2nnc(-c3nc(-c4cccs4)no3)c2N)cc1 | . | 0.27
CN(Cc1ccco1)S(=O)(=O)c1ccc(-c2ccc(=O)[nH]n2)s1 | . | 0.19
CCCCN1COc2c(cc(Cl)c3cccnc23)C1 | 17* | 2.1
CN(C)S(=O)(=O)c1ccc(C(=O)Nc2nc3ccc(S(=O)(=O)N(C)C)cc3s2)cc1 | . | 0.06
Fc1ccc(N2CCN(c3nn4nnnc4c4ccccc34)CC2)cc1 | . | -0.11
CCOc1c(Nc2ccccc2OC)c(=O)c1=O | . | 0.87
Cc1ccc(CNS(=O)(=O)c2ccc(C(F)(F)F)cc2)n1C | -1.7 | .
CCOC(=O)c1cnc(SCC(=O)N2CCCC(C)C2)nc1N (centres undefined) | . | 0.56
Cc1nc2ccccc2nc1SCC(=O)N1CCCC1 | . | 0.79
O=C(CCCOc1ccccc1)Nc1ncn[nH]1 | 0.33 | -1.5
CCc1ccc(-c2cc(C)no2)cc1S(=O)(=O)Nc1ccccc1C | . | -0.82
CCc1c(C)nc2ncnn2c1Nc1ccc(Cl)cc1 | . | 1.2
COc1cccc(-c2cc(=O)c3ccccc3o2)c1N | -1.6 | 0.81
CCC(C)NS(=O)(=O)c1ccc(-n2cccn2)cc1 (centres undefined) | . | 0.12
O=C1C(Nc2ccccc2)=CC(c2cccc(F)c2)N1c1ccccc1 (centres undefined) | -0.34 | -0.4
CCOC(=O)c1cn[nH]c1S(=O)(=O)N1CCN(C)CC1 | . | -0.2
CCS(=O)(=O)c1ncc(Cl)c(C(=O)Oc2ccc(C)cc2)n1 | -1.2 | 0.13
Cc1csc2ncc(C(=O)NCCN3CCCC3)c(=O)n12 | . | 1.2
O=C(CCN1C(=O)c2cccc([N+](=O)[O-])c2C1=O)NCC1CCCO1 (centres undefined) | -2.5 | .
CCCCc1nn2c(=O)cc(CSc3n[nH]c(-c4ccccc4C)n3)nc2s1 | . | 0.92
CCOC(=O)N1CCN(C(=O)C2CCCN(c3nn4c(=O)cc(C)nc4s3)C2)CC1 (centres undefined) | -0.43 | -0.27
CCc1ccnc(NS(=O)(=O)c2ccc(C)cc2)c1 | -1.2 | .
Cc1nc(C2CC(=O)OC23CCCCC3)cs1 (centres undefined) | -1.6 | .
O=c1oc(-c2cccs2)nc2c(Br)cc(Br)c(F)c12 | -2.1 | .
C=CCOC(=O)COc1ccc2c3c(c(=O)oc2c1)CCCC3 | -0.51 | .

Next section, overlapping the part above by 6 compounds.
SMILES | CDC25B CDK2 inh | TAR Tat displ
CCCCc1nn2c(=O)cc(CSc3n[nH]c(-c4ccccc4C)n3)nc2s1 | . | 0.92
CCOC(=O)N1CCN(C(=O)C2CCCN(c3nn4c(=O)cc(C)nc4s3)C2)CC1 (centres undefined) | -0.43 | -0.27
CCc1ccnc(NS(=O)(=O)c2ccc(C)cc2)c1 | -1.2 | .
Cc1nc(C2CC(=O)OC23CCCCC3)cs1 (centres undefined) | -1.6 | .
O=c1oc(-c2cccs2)nc2c(Br)cc(Br)c(F)c12 | -2.1 | .
C=CCOC(=O)COc1ccc2c3c(c(=O)oc2c1)CCCC3 | -0.51 | .
CC1CSc2ccc(S(=O)(=O)NC3CC3)cc2NC1=O (centres undefined) | . | 1
CN(C)c1nc(OCCNC(=O)Nc2cccc(Cl)c2)nc(N2CCOCC2)n1 | -1.3 | 3.9
Cc1ccc(N2C(=O)C3C(c4ccccc4F)OC4(C(=O)c5ccccc5C4=O)C3C2=O)cc1 (centres undefined) | -0.66 | .
COc1cc(CN2CCN(Cc3ccc(OC)cc3OC)CC2)cc(OC)c1 | -0.14 | 2.1
O=C(c1noc2c1CSc1ccccc1-2)N1CCCC1 | -2.1 | 0.16
O=C(CSc1nnc2scc(-c3ccccc3)n12)Nc1nsc(-c2ccc(Cl)cc2)n1 | -0.26 | .
Cn1c(C(=O)c2ccccc2)nc2ccccc21 | 0.67 | 0.53
Cc1ccc(-c2csc(Nc3cccc(C(=O)O)c3)n2)cc1C | -2.3 | .
COc1ccc(NC(c2ccccc2)c2nnc(-c3ccccc3)o2)cc1OC (centres undefined) | 0.64 | 0.04
COc1ccc(OC)c(S(=O)(=O)N2CC(C)CC(C)C2)c1 (centres undefined) | -1.2 | 0.13
O=C1CNC(=S)N1Cc1ccncc1 | -1.6 | .
CCOc1ccc(/C(O)=C2\C(=O)C(=O)N(c3nccs3)C2c2ccc(C)cc2)cc1 (centres undefined) | -3.8 | -0.78
O=C(Nc1ccccc1F)c1cc2c(Cl)ccc3c2n1CCO3 | . | 0.97
COc1ccc(-c2noc(CSc3nnc(-c4ccncc4)n3-c3ccc(OC)cc3)n2)cc1 | 1.1 | 1.4
Cc1cc(NC(=O)c2noc(C(C)C)c2[N+](=O)[O-])no1 | -0.55 | 0.34
Cc1cn2c(=O)cc(CSCC(=O)Nc3ccccc3Cl)nc2s1 | . | 1.2
O=C(NCCN1CCCC1)c1c2c(nc3ccccc13)C(=O)N(C1CCCCC1)C2 | . | 1.6
CS(=O)(=O)NCc1c(Cl)cccc1Sc1ccc(Cl)cc1 | 0.39 | .
CC1=CC(=O)OC1Cc1ccc2ccccc2n1 (centres undefined) | 1.1&-1.8 | 2.3
N#Cc1nc(/C=C/c2ccccc2)oc1N1CCNCC1 | -1.4 | 0.13
CC(=O)N1c2ccccc2C(=O)C1N(Cc1ccccc1)C(C)C (centres undefined) | . | 0.69
O=S(=O)(c1ccc(Cl)cc1)c1nnn2c1nc(NCc1ccc3c(c1)OCO3)c1ccccc12 | -2.5 | 0.33
Cc1cccc2[nH]c(SCc3ccccc3)nc12 | 1.9 | 0.56
O=S(=O)(Cc1ccccc1)Nc1noc2ccccc12 | -1.2 | 2.4
O=C(c1nc(-c2cccnc2)no1)N1CCN(Cc2ccc3c(c2)OCO3)CC1 | . | 1.7
(next part)
SMILES | CDC25B CDK2 inh | TAR Tat displ
O=c1cc(CSCc2ccco2)[nH]c2ccc(Cl)cc12 | . | -1.3
Nc1ccc(-c2nc3ccccc3n2CCOc2ccccc2)cc1 | -0.81 | 1.2
CCCc1nc2nc(C)cc(NCCN3CCN(c4cccc(Cl)c4)CC3)n2n1 | 1.6 | 1.2
CCOC(=O)c1ccccc1CSC(=N)N | -2.9 | .
COc1cc(NS(=O)(=O)c2ccc3c(c2)N(C(C)=O)CC(C)S3)cc(OC)c1 (centres undefined) | . | -2.1
O=c1oc2ccccc2n1CCCOc1ccccc1Cl | 0.04 | 1.8
Cn1c(=O)n(C)c2cc(C(=O)O)ccc21 | 1.9 | 1.1
O=C1C[C@@H](c2ccc(O)cc2)Oc2cc(O)cc(O)c21 | . | 2.9
CCc1oc(C(=O)O)cc1CN1CCCC1 | -0.71 | -0.14
Cc1nnc2ccc(N3CC(C)CC(C)C3)nn12 (centres undefined) | -1.4 | -0.9
Cc1ccc(S(=O)(=O)NCc2ccc(/C=N/NC(=O)c3ccco3)o2)cc1 | -1.3 | .
O=C(CSc1nc2c(cnn2-c2ccc(F)cc2)c(=O)[nH]1)N1CCOCC1 | 0.1 | .
O=C(/C=C/c1ccc(Cl)cc1Cl)N1CCN(c2ccc([N+](=O)[O-])cc2)CC1 | -1 | .
O=C(c1cccc(Cl)c1)N1CCN(c2ccc3nncn3n2)CC1 | -2.2 | 0.83
COc1ccc(-c2cc(C(F)F)n3ncc(C(=O)N4CCCC4)c3n2)cc1 | 0.22 | -0.72
O=C(Nc1nnc(COc2ccccc2Cl)s1)C(=O)c1c[nH]c2ccccc12 | -2 | 2.6

6 entries drawn at random from those above, as already listed:
SMILES | CDC25B CDK2 inh | TAR Tat displ
CCc1oc(C(=O)O)cc1CN1CCCC1 | -0.71 | -0.14
Nc1ccc(-c2nc3ccccc3n2CCOc2ccccc2)cc1 | -0.81 | 1.2
O=C(/C=C/c1ccc(Cl)cc1Cl)N1CCN(c2ccc([N+](=O)[O-])cc2)CC1 | -1 | .
CCCc1nc2nc(C)cc(NCCN3CCN(c4cccc(Cl)c4)CC3)n2n1 | 1.6 | 1.2
O=C1C[C@@H](c2ccc(O)cc2)Oc2cc(O)cc(O)c21 | . | 2.9
COc1cc(NS(=O)(=O)c2ccc3c(c2)N(C(C)=O)CC(C)S3)cc(OC)c1 (centres undefined) | . | -2.1
